# Compound activity deposited in PubChem by Southern Research Institute.
# Mtb growth: Mycobacterium tuberculosis H37Rv growth inhibition, cell based, confirmatory dose response (AID 1949); most inactive calls were filed without a number and no value below 0 was filed; one-dose inhibition, % at 10 µg/mL; IC50 in µg/mL for titrated hits; 1.6% of 100,000 active;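 active = confirmed in a dose series; inconclusive = about 50% or more but not retested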;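 also: bacteria grown 7 days with compound before Alamar blue readout; 0% = untreated bacteria and 100% = reference antibiotic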
# Starred values were filed as active, the others as inactive; i = inactive; ? = inconclusive. These rows are one share of the data (hit frequency here may not be typical).
SMILES,Mtb growth
CCOc1ccccc1N1CCN(C(=S)NCCc2ccc(OC)c(OC)c2)CC1,i
Cc1cccc(OCCn2c(-c3ccco3)nc3ccccc32)c1,2%
COc1ccc(C(=O)Nc2ccc(-c3nnc(SCc4ccccc4)o3)cc2)cc1,4%
Cc1ccc(Cl)cc1N1CCN(C(=O)c2ccc(Cl)cc2)CC1,3%
CN(Cc1ccccc1)C(=O)CN(c1cccc(F)c1)S(C)(=O)=O,i
COC(=O)C(NC(=O)c1ccc(S(=O)(=O)N2CCOCC2)cc1)C(C)C (stereo not given),i
COc1ccc(C)cc1NC(=O)CCCN1C(=O)CCC1=O,i
Cc1ccc(S(=O)(=O)NC(C)(C)CSc2ccccn2)cc1,i
NC(=O)C1CCN(C(=O)CN2CCN(c3ccc(F)cc3)CC2)CC1,i
COc1ccc2c(c1)CCCN2C(N)=O,i
CC(=O)C1=C(C)Nc2ncnn2C1c1ccccc1OCc1ccccc1 (stereo not given),2%
Cc1sc2nc(N)c(C(=O)NC(C)C)cc2c1C,i
CC(C)c1ccc(S(=O)(=O)O)cc1,1%
CCOc1ccc(C(=O)NC(=S)Nc2ccc(I)cn2)cc1Cl,1%
CN(C)CCNC(=O)COc1ccc(Cl)cc1,6%
CC(=O)c1sc2nc3c(c(-c4ccccc4)c2c1N)CCC3,2%
CCOc1cc(C(=S)N2CCN(c3ccccc3F)CC2)ccc1O,i
CS(=O)(=O)N1CCC(C(=O)NCCC2=CCCCC2)CC1,i
CCSc1nnc(Cc2ccccc2)n1-c1ccc(Cl)cc1,i
O=C(COc1ccc(Br)cc1Cl)NC1CCN(Cc2ccccc2)CC1,i
COCCNC(=O)Nc1ccc(F)cc1,0%
O=C(COc1ccccc1)Nc1ccc2nc(SCC(=O)c3ccc(F)cc3)sc2c1,i
CN1C(=O)C(O)(CC(=O)c2cccs2)c2cc(Br)ccc21 (stereo not given),i
COc1ccccc1C(=O)NC(=S)Nc1ccc(S(=O)(=O)NC2CCCCC2)cc1,3%
CC(=O)Nc1ccc(NC(=O)Cc2ccccc2)cc1C,0%
COc1ccc(CCNC(=O)c2ccc(N(Cc3ccccc3C)S(C)(=O)=O)cc2)cc1OC,i
Cc1ccc(C(=O)O)cc1NC(=S)NC(=O)c1ccc(COc2ccccc2)cc1,3%
Cc1ccc(CN2CCN(Cc3ccccn3)CC2)cc1,i
CC(C)(C)CC(=O)NC(=S)NCCc1ccccc1,10%
Cc1cc(C)c(NC(=O)C(=O)NCc2ccccc2C)c(C)c1,i
O=S1(=O)NC(=NCCOCc2ccc(Cl)cc2)c2ccccc21,2%
COc1ccc(CN2CCCCC2C)cc1OC (stereo not given),i
Cc1cccc(OCC(=O)Nc2ccc(S(N)(=O)=O)cc2)c1C,i
C=C(C)c1cccc(C(C)(C)NC(=O)Nc2cccc(Cl)c2)c1,i
COc1ccc(Cl)cc1NC(=S)NCc1ccco1,i
COc1ccccc1C(=O)N/C(=C/c1ccc2c(c1)OCO2)C(=O)Nc1ccc(C(=O)O)cc1,i

# In another format: 2 of the compounds above
SMILES	Mtb growth
CC(C)(C)CC(=O)NC(=S)NCCc1ccccc1	10%
Cc1cc(C)c(NC(=O)C(=O)NCc2ccccc2C)c(C)c1	i

# Further structures follow:
SMILES,Mtb growth
COc1ccc2nc(SCC(=O)OC(C)(C)C)[nH]c2c1,i
Cc1nc2ccc(NC(=O)N3CCOCC3)cc2s1,i
COc1ccc(N(CC(=O)N2CCC(C(N)=O)CC2)S(=O)(=O)c2ccccc2)cc1,2%
COC(=O)C(C)N(C#N)c1nc(C)nc(C)n1 (stereo not given),i
COC(=O)C1=C(C)N(Cc2ccccc2)C(=O)NC1c1ccc(C(=O)OC)cc1 (stereo not given),i
O=S(=O)(c1cccs1)N1CCCC(C(F)(F)F)C1 (stereo not given),i
COc1ccccc1N1CCN(C(=O)c2cc(-c3ccc(C)cc3C)nc3ccccc23)CC1,27%
Cc1nc2cc(NC(=O)Nc3ccc(I)cc3)ccc2o1,i
O=C(CC1Sc2ccccc2NC1=O)Nc1ccc2c(c1)OCO2 (stereo not given),i
Oc1ccccc1-c1nc(Nc2ccccc2F)c2ccccc2n1,2%
Cc1nc(C)n(CC(O)COc2ccc3c(c2)CCC3)n1 (stereo not given),i
COC(=O)C1=CN(Cc2ccc(OC)cc2)C=C(C(=O)OC)C1c1ccc2c(c1)OCO2,i
Cc1nnc(SCc2cccc(Oc3ccccc3)c2)[nH]c1=O,i
CCCSc1ncnc2sc(C)c(C)c12,i
Cc1nnc(NC(=O)C(C)Sc2ccccn2)s1 (stereo not given),2%
CCCC(=O)Nc1cc(-c2nnc(OC)c3ccccc23)ccc1N1CCOCC1,i
CC1=CC(C)(C)N(C(=O)C(C)N2C(=O)c3ccccc3C2=O)c2ccccc21 (stereo not given),i
CN(CCCC(=O)Nc1ccc(F)c(Cl)c1)S(=O)(=O)c1ccccc1,11%
CCOC(=O)c1sc(NC(=O)c2ccc(Cl)cc2)nc1C,i
COC(=O)C1=C(N)Oc2cc(C)oc(=O)c2C12C(=O)Nc1ccccc12 (stereo not given),i
O=C(O)c1cc(NC(=S)NC(=O)c2cccc3ccccc23)ccc1Cl,i
COC(=O)c1ccccc1NC(=O)COc1c(C)ccc(C)c1C,i
N#C/C(=C\c1ccc(OCC(N)=O)cc1)c1ccccc1,?
COc1cccc(C(=O)N2CCN(Cc3cccc(F)c3)CC2)c1,1%
Cc1ccccc1C(=O)Nc1ccc(S(=O)(=O)N(C)c2ccccc2)cc1,i
C=CCc1ccc(OCCCN2CC(C)OC(C)C2)c(OC)c1 (stereo not given),i
O=C(Nc1ccccc1C(F)(F)F)N1CCN(c2ncccn2)CC1,i
Cc1ccc(OCC(=O)Nc2cccc3c2C(=O)NC3=O)cc1C,i
Cc1ccc(Cl)cc1NC(=O)CCCCC(=O)Nc1cc(Cl)ccc1C,i
O=C(CC1SC2=NCCN2C1=O)Nc1cccc(C(F)(F)F)c1 (stereo not given),49%
Cc1ccc2c(c1)Oc1cc(C#N)c(C#N)cc1O2,i
CCN1CCN(CCSc2ccc(C)cc2)CC1,i
Cc1cc(C(C)(C)C)cc(S(=O)(=O)NCCO)c1C,i
CC(NC(=O)c1ccc(C#N)cc1F)c1ccccc1 (stereo not given),i
CC(C)(C)N(Cc1ccccc1)Cc1nc(-c2ccccc2)no1,i
CC(C)(C)NC(=O)CCC1CCCCC1,i
COc1ccc(OC)c(N(CC(=O)Nc2c(C)cc(C)cc2C)S(C)(=O)=O)c1,4%
CC(Oc1cccc(Cl)c1)C(=O)N1CCN(c2ccccc2F)CC1 (stereo not given),11%
NC(=S)Nn1c(=O)[nH]c2sc3c(c2c1=O)CCCC3,i
CCOC(=O)c1c(NC(=S)NC2CCN(Cc3ccccc3)CC2)sc(C)c1-c1ccccc1,1.4µg/mL*
CCc1ccc(N(CC(=O)NCc2ccc(OC)cc2)S(C)(=O)=O)cc1,i
COc1ccccc1NC(=O)c1ccccc1SCc1ccccc1,8%
O=C(O)c1ccccc1-c1ccccc1C(=O)Nc1cc(Cl)c(O)c(Cl)c1,i
CCOC(=O)/C(=C\C=C\c1ccccc1)NC(=O)c1ccccc1,11%
Cc1ccc(S(=O)(=O)Nc2ccc(S(=O)(=O)Nc3ccc(F)cc3)cc2)cc1[N+](=O)[O-],i
COc1ccc(NC(=S)NNS(=O)(=O)c2ccc3ccccc3c2)c(OC)c1,4%
CC1(C(=O)O)CCC(C(=O)Nc2ccccc2O)C1(C)C (stereo not given),i
Cc1ccc(NC(=O)COc2ccc3c(-c4ccccc4)cc(=O)oc3c2)cc1,4%
COc1ccc(C2C=C(c3cccnc3)Nc3nnnn32)cc1 (stereo not given),i
CCOC(=O)c1c(N)n(C)c2nc3ccccc3nc12,i
Cn1c(-c2ccc(N)cc2)nc2cc(N)ccc21,1%
NC(=O)c1c(NC(=O)CSc2ccc(Cl)cc2)sc2c1CCCC2,i
COc1cccc(NC(=O)CN2CCCCCC2)c1,i
COc1ccc(S(=O)(=O)N2CCC(C(=O)N3CCCCCC3)CC2)cc1C,i
CCC(=O)N1c2ccccc2NC2=C(C(=O)CCC2)C1c1c(Cl)cccc1Cl (stereo not given),i
Cc1ccc(C(=O)Nc2ccncc2)c(C)c1,i
S=C(Nc1ccc2c(c1)OCO2)Nn1cnnc1,i
CC(=O)Oc1cccc(C(=O)Nc2ccccc2[N+](=O)[O-])c1,i
COC(=O)COc1ccc(S(=O)(=O)NCCC2=CCCCC2)cc1C,i
CCCn1c(CCc2ccccc2)n[nH]c1=S,1%

# Shown with tabs: 19 of the compounds above.
Compound	Mtb growth
CCOC(=O)c1c(NC(=S)NC2CCN(Cc3ccccc3)CC2)sc(C)c1-c1ccccc1	1.4µg/mL*
CCc1ccc(N(CC(=O)NCc2ccc(OC)cc2)S(C)(=O)=O)cc1	i
COc1ccccc1NC(=O)c1ccccc1SCc1ccccc1	8%
O=C(O)c1ccccc1-c1ccccc1C(=O)Nc1cc(Cl)c(O)c(Cl)c1	i
CCOC(=O)/C(=C\C=C\c1ccccc1)NC(=O)c1ccccc1	11%
Cc1ccc(S(=O)(=O)Nc2ccc(S(=O)(=O)Nc3ccc(F)cc3)cc2)cc1[N+](=O)[O-]	i
COc1ccc(NC(=S)NNS(=O)(=O)c2ccc3ccccc3c2)c(OC)c1	4%
CC1(C(=O)O)CCC(C(=O)Nc2ccccc2O)C1(C)C (stereo not given)	i
Cc1ccc(NC(=O)COc2ccc3c(-c4ccccc4)cc(=O)oc3c2)cc1	4%
COc1ccc(C2C=C(c3cccnc3)Nc3nnnn32)cc1 (stereo not given)	i
CCOC(=O)c1c(N)n(C)c2nc3ccccc3nc12	i
Cn1c(-c2ccc(N)cc2)nc2cc(N)ccc21	1%
NC(=O)c1c(NC(=O)CSc2ccc(Cl)cc2)sc2c1CCCC2	i
COc1cccc(NC(=O)CN2CCCCCC2)c1	i
COc1ccc(S(=O)(=O)N2CCC(C(=O)N3CCCCCC3)CC2)cc1C	i
CCC(=O)N1c2ccccc2NC2=C(C(=O)CCC2)C1c1c(Cl)cccc1Cl (stereo not given)	i
Cc1ccc(C(=O)Nc2ccncc2)c(C)c1	i
S=C(Nc1ccc2c(c1)OCO2)Nn1cnnc1	i
CC(=O)Oc1cccc(C(=O)Nc2ccccc2[N+](=O)[O-])c1	i

# Next results follow:
SMILES,Mtb growth
Cc1cc(C(=O)NCC23CC4CC(CC(C4)C2)C3)ccc1[N+](=O)[O-],0.42µg/mL*
Cc1ccc(SCCC(=O)Nc2c(C)cc(C)cc2C)cc1,i
CCOC(=O)C1=C(CN2CCSCC2)NC(=O)NC1c1ccc(OC)cc1 (stereo not given),1%
CC(=O)Nc1ccc(NC(=O)CN(c2ccc(Br)cc2)S(=O)(=O)c2ccccc2)cc1,i
C1CCOC2(CCC3(CC2)OCCCCO3)OC1,i
Cc1ccc(Cl)cc1NC(=O)CC(O)(C(F)(F)F)C(F)(F)F,7µg/mL*
O=C(CSc1ncnc2scc(-c3ccc(Br)cc3)c12)N1CCOCC1,1%
O=C(Oc1ccc(Br)cc1)c1ccc(N2CCOCC2)c([N+](=O)[O-])c1,i
CC(=O)n1cc(Nc2cccc([N+](=O)[O-])c2)c2ccccc21,2%
c1ccc2c(c1)nc(-c1cscn1)n2Cc1ccc(-c2nn[nH]n2)cc1,i
O=S(=O)(O)c1ccc2ccc(S(=O)(=O)O)cc2c1,i
CCCCOc1ccc(C(=O)NCCC2=CCCCC2)cc1,4%
Cc1nn2c(nc1=O)SCC(c1ccccc1)=N2,i
CC1(C)C(=O)OC(c2ccco2)C(C)(C)C1=O (stereo not given),i
Cc1cccc(C)c1OCC(=O)Nc1cccc(Cl)c1C,26%
CC(C)(C)c1cc(CNCCS(=O)(=O)O)c(O)c(C(C)(C)C)c1,i
CS(=O)(=O)Nc1ccc(S(=O)(=O)Nc2cc(Cl)cc(Cl)c2)cc1,i
O=C(O)c1c(F)c(F)c(F)c(F)c1-c1ccc(Cl)cc1,i
O=C(NCCN1CCN(c2ccc([N+](=O)[O-])cc2)CC1)NCc1ccccc1,i
O=C(CCC1CCCCC1)Nc1ncc(S(=O)(=O)c2ccc([N+](=O)[O-])cc2)s1,i
Cc1cc(Nc2ccc(C(=O)O)cc2)c2cccc(Cl)c2n1,i
Cc1ccccc1OCC(=O)N(C(C)C)C(C)C,i
O=C(Oc1ccc2cc(Br)ccc2c1)N1CCCCCC1,17%
COc1cc(SC)ccc1C(=O)NC1CCCC1,i
CC(=O)Nc1cc(C(=O)OCC(=O)C(C)(C)C)ccc1C,i
COc1cc(/C=C/c2[nH]c(=O)[nH]c(=O)c2[N+](=O)[O-])cc(OC)c1OC,4%
Cc1cc(C)c(C)c(S(=O)(=O)N2CC(C)OC(C)C2)c1C (stereo not given),4%
CC1=C(C(=O)OC(C)C)C(c2cccnc2)n2nnnc2N1 (stereo not given),i
COc1cc(NC(=S)NC(=O)COc2ccc(C)cc2)ccc1NC(=O)c1cc2ccccc2o1,i
O=C(Nn1cnnc1)c1cc2c(s1)CCCCC2,i
O=c1[nH]c2ccc(S(=O)(=O)NNc3ccccc3)cc2[nH]1,i
CC(=O)Oc1ccccc1NC(=O)CCc1ccccc1,i
O=C(Nc1cccc(C(F)(F)F)c1)C1CCN(S(=O)(=O)c2cc(Cl)ccc2Cl)CC1,i
CC(NC(=O)c1ccc(N)cc1)c1ccccc1 (stereo not given),i
CC(C)(C)NS(=O)(=O)c1ccc(NC(=O)Nc2ccccc2)cc1,i
CCc1ccc(OCc2nnc(SCC(=O)Nc3c(C)cc(Br)cc3C)o2)cc1,i
Cc1ccccc1NC(=O)c1sc(N)c(C(N)=O)c1C,1%
NC(=O)CC1Nc2ccccc2NC1=O (stereo not given),1%
NC(=O)c1ccccc1NC(=O)c1ccc(COc2ccccc2)cc1,i
COc1ccc(-n2c3c(c(=O)[nH]c2=O)C(NC(=O)C(C)(C)C)(C(F)(F)F)C(=O)N3)cc1 (stereo not given),i
CCOc1ccc(-n2c(-c3ccccc3F)n[nH]c2=S)cc1,i
CCOc1ccc(C2NC(=O)NC(C)=C2C(N)=O)cc1OC (stereo not given),i
O=C1CC(N2CCN(C/C=C/c3ccccc3)CC2)C(=O)N1Cc1cccs1 (stereo not given),i
COc1cc(N/C(N)=N\c2nc(C)cc(C)n2)cc(OC)c1,i
O=C(c1ccco1)N1CCN(c2nc(-c3ccc(F)cc3)cs2)CC1,i
COc1ccc2c(c1)c(=O)oc1c(C)c(OCC(=O)NC3CC3)ccc12,i
CCOc1ccccc1CNc1ccc(O)cc1,5%
CCN1CCN(CCOc2ccc(Cl)cc2)CC1,i
